Beta cell apopt = blocks beta cell apoptosis | protection from apoptosis, % (test concentration not listed) | AID 435005 | INS-1E cytokine-induced death, ATP luminescence, 48 h; percent of positive-control rescue, neutral wells zero | 300,000 tested, 0.8% active;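 active means all replicates at 75% or more, or half of them and the mean; inconclusive means half reach 75% but not the mean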;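 further: 0% = cytokine-treated negative control wells and 100% = positive control rescue; higher means more ATP so stronger rescue from cytokine killing; wells of about 40 µL received 100 nL stock; the first replicate is given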
RanGTP-Impb inh = inhibitors of RanGTP-importin-beta interaction, primary screen, biochemical, FRET, CFP-Ran, YFP-importin-beta, homogeneous; cell-free CFP-Ran/YFP-importin-beta FRET ratio; inhibition, % (no concentration beside the values); 300,000 tested, 1.1% active; AID 2216;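 active means most replicates above 15%; inconclusive means exactly half above 15%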;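 further: 0% = DMSO wells and 100% = Ran loaded with GDP instead of GTP; wells of about 40 µL received 100 nL stock; the first replicate is given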
Beta2AR agonist = agonists of human beta-2 adrenergic receptor inducing internalization. P07550. Am2.2-beta2AR cells, FAP receptor internalization, flow cytometry; reference of the scale not given here. response, % (no concentration beside the values). 340,000 tested, 0.43% active;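 active means response above a set limit, near 3 SD of response in nonfluorescent compounds, cut at about 42% in these data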;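 further: stock transfer was 100 nL into about 11 µL; a reference agonist was the positive control; negative values mostly stem from fluorescent compounds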
Target sequence (P07550 whole entry, looked up): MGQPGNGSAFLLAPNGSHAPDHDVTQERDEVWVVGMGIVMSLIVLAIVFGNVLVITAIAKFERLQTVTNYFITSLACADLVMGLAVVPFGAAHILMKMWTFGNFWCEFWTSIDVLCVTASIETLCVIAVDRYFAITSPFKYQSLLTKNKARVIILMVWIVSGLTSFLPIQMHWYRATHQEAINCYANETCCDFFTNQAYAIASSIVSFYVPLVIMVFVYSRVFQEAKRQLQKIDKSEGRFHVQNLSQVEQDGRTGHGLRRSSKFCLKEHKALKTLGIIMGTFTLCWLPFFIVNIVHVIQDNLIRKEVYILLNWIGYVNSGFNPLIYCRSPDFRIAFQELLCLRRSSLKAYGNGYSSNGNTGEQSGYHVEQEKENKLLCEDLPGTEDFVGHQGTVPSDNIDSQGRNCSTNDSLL
Bfl-1 A1 inh = inhibitors of the anti-apoptotic protein A1, read as caspase activation; AID 2462; MEF A1-2A-BIM cells, Caspase-Glo 3/7 luminescence, 3 h; percent of clofoctol response, vehicle zero; 330,000 tested, 0.066% active; caspase activation, % (no concentration beside the values);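 active means over half of replicate activation scores above 10%, or exactly half above 10 with the replicate mean above 10; inconclusive means replicate mean below 10 yet half the replicates above 10; inactive means over half of replicates below 10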;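 further: wells of about 30 µL received 50 nL stock; many hits fall short of the cut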
UCH37 DUB inh = inhibitors of human deubiquitinating enzyme UCH37 | Q9Y5K5 | AID 588478 | 330,000 tested, 0.33% active | purified proteasome/UCH37, Ub-AMC cleavage fluorescence | inhibition, % (test concentration not listed);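 active means mean of two replicates above 20%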;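 further: 0% = compound-free wells with enzyme and 100% = wells lacking proteasome; stock transfer was 100 nL into about 20 µL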
Target sequence (Q9Y5K5 whole entry, looked up): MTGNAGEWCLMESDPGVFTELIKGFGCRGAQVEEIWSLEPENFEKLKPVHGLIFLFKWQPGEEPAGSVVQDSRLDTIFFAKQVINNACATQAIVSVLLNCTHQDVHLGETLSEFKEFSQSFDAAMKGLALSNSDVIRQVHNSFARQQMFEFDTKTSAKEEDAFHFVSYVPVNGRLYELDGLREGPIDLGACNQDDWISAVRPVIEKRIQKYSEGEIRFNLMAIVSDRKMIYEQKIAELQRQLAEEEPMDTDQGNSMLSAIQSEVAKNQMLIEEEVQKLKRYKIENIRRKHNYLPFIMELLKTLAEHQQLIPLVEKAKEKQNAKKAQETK
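Material: Human UCH37 enzyme supplied as purified proteasome complex | Schedule: 30 min compound-proteasome preincubation then 25 min substrate reaction, room temperature | Detection: AMC fluorescence from Ub-AMC cleavage, excitation 355 nm, emission 460 nm | Benchmarks: Wells without proteasome as full block, compound-free enzyme plus substrate as uninhibited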
Calb FLC = C. albicans growth modulation with fluconazole. growth inhibition, % (no concentration beside the values). C. albicans CaCi-2 (fluconazole-resistant clinical isolate) + fluconazole, Alamar Blue growth, 48 h. 300,000 tested, 0.57% active;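 active means most replicates above 75%; inconclusive means exactly half above 75%; inactive means most below 75%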;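 further: all wells also contain fluconazole at 8 µg/ml as a sub-toxic cotreatment; 0% = median of DMSO wells and 100% = median of geldanamycin control wells; wells of about 8 µL received 7.5 nL stock; the first replicate is given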
LANA-H2B inh = blocks KSHV LANA binding to histone H2A/H2B. Q9QR71. cell-free LANA-H2A/H2B peptide, fluorescence polarization. inhibition, % (no concentration beside the values). 320,000 tested, 0.6% active; in the data active means inhibition mostly above about 10%, no sharp cut-off; inactive means mostly below about 6.7%;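 further: stock transfer was 7.5 nL into about 10 µL; 0% = median of vehicle wells and 100% = median of positive control wells; one replicate is shown; the record names a cut of 25% in any replicate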
T cruzi inh = T. cruzi replication inhibition; AID 1885; inhibition, % (test concentration not listed); 300,000 tested, 1.4% active; T. cruzi beta-gal in NIH3T3, luminescence, 90 h;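 active means mean inhibition across valid replicates above about 55%, limit read from the data; inconclusive means mean below that limit but half or more replicates reach it; inactive means mean below it, under half of replicates reach it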;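 further: signal also drops with host cell toxicity which is not excluded here; 0% = plate median of DMSO wells and 100% = zero luminescence signal; higher percent means less beta-gal luminescence so fewer parasites; stock transfer was 50 nL into about 50 µL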
Starred values were filed as active, the others as inactive; i = inactive; ? = inconclusive; . = not tested or not shown.

Start of the listing, in advance:
SMILES	Beta cell apopt	RanGTP-Impb inh	Beta2AR agonist	Bfl-1 A1 inh	UCH37 DUB inh	Calb FLC	LANA-H2B inh	T cruzi inh
COc1cc2c(cc1OC)CN(CC(=O)Nc1ccc(C)c(C)c1)CC2	-1	7.0	-3	-1.3	0.6	-3	4.3	-4
COc1ccc(C2=NCCn3nc4cc([N+](=O)[O-])ccc4c32)cc1	1	9.1	-2	0.0	2.0	10	-1.1	-11
CC1CC(C)CN(C(=O)COC(=O)CCCN2C(=O)c3cccc4cccc(c34)C2=O)C1 (stereo not given)	1	2.0	1	-0.3	-38	-18	4.5	-5

Main list, previewed entries included:
SMILES	Beta cell apopt	RanGTP-Impb inh	Beta2AR agonist	Bfl-1 A1 inh	UCH37 DUB inh	Calb FLC	LANA-H2B inh	T cruzi inh
COc1cc2c(cc1OC)CN(CC(=O)Nc1ccc(C)c(C)c1)CC2	-1	7.0	-3	-1.3	0.6	-3	4.3	-4
COc1ccc(C2=NCCn3nc4cc([N+](=O)[O-])ccc4c32)cc1	1	9.1	-2	0.0	2.0	10	-1.1	-11
CC1CC(C)CN(C(=O)COC(=O)CCCN2C(=O)c3cccc4cccc(c34)C2=O)C1 (stereo not given)	1	2.0	1	-0.3	-38	-18	4.5	-5
CN(C)S(=O)(=O)c1cccc(C(=O)c2nccn2C)c1	-10	1.0	-6	0.2	3.2	-3	4.2	-6
CCCS(=O)(=O)C(=C(Nc1ccccc1)Nc1ccccc1)S(=O)(=O)CCC	-11	1.5	-12	-0.1	3.2	24	5.1	-5
COc1ccc(OC)c(NC(=O)CSc2nnc(CNC(=O)c3ccco3)o2)c1	2	-2.3	3	0.8	3.1	-1	4.0	-3
CCCCNc1c(-c2ccc(OC)c(Sc3ccc(OC)cc3)c2)nc2ccc(Cl)cn12	17	.	23	-1.1	-84	.	-1.9	.
COc1ccc(CNC(=O)CN(C(=O)c2cc3sccc3n2C)C2CCCC2)cc1	.	-2.2	-14	0.6	1.6	-3	-6.2	11
O=C(CSc1nnc(NC(=O)c2ccco2)s1)NC1CCCCC1	3	-1.1	-8	0.6	7.6	-11	-2.6	-7
CC(C)(C)C(=O)[C@@H]1[C@@H]2C(=O)N(C3CCCCC3)C(=O)[C@@H]2[C@H]2c3ccccc3C=CN12	-2	.	14	2.8	12	.	-5.7	.
CCOC(=O)Cn1c(S(=O)(=O)Cc2ccccc2Cl)nc(-c2ccccc2)c1-c1ccccc1	24	-2.6	12	0.6	3.8	17	5.6	34
O=C(CN1C(=O)C(=O)N(C2CCCC2)C1=O)Nc1ccc(OC(F)F)cc1	1	.	-1	2.0	3.2	.	5.0	.
O=C(NCC1CCCN(C(=O)c2cscn2)C1)c1ccccc1Cl (stereo not given)	2	2.4	10	-1.1	0.2	?	-1.8	7
O=C(Nc1ccc(Cl)cc1)Nc1cnccn1	-5	?	-2	?	4.1	1	1.1	4
CCNS(=O)(=O)c1ccc(CCC(=O)Nc2cc(Cl)ccc2Oc2ccccc2)cc1	11	0.8	26	0.0	3.3	13	2.8	5
CCOCC(=O)Nc1nc2ccc(S(C)(=O)=O)cc2s1	3	2.0	-1	1.5	2.9	1	0.4	-6
CCCc1cc(N2CCCC(C(=O)NCc3ccc4c(c3)OCO4)C2)n2ncnc2n1 (stereo not given)	3	2.0	i	-0.4	0.0	28	1.7	12
COc1ccccc1CNC(=O)CSc1nc(N)c(C#N)c(-c2cccs2)c1C#N	.	0.1	-3	0.1	-4.9	2	-6.7	44
COC(=O)c1ccc(CSc2n[nH]c(-c3ccccc3)n2)o1	-1	-0.3	0	-0.2	1.3	-6	0.5	-4
CC(=O)N1CCc2cc(S(=O)(=O)Nc3ccc(C)cc3C)ccc21	4	-4.1	-10	-1.0	0.1	-12	3.3	4
CCN(CC)S(=O)(=O)c1ccc(F)c(C(=O)NCCC(C)C)c1	-5	-1.9	5	-0.2	-2.4	-7	0.3	13
CCc1cc(C(c2ccncc2)N2CCN(C)CC2)c(NC(=O)c2ccccc2)s1 (stereo not given)	-1	?	-15	0.6	2.3	13	-0.6	20
O=[N+]([O-])c1cccc(/C=N/Nc2cc(N3CCOCC3)ncn2)c1	-11	-2.6	6	-0.4	.	-3	3.5	-4
COC(=O)CNC(=O)c1cc(OC)cc(OC)c1	-7	1.0	1	0.0	-1.2	-10	-2.9	-12
O=C(CSc1ncnc2c1nnn2-c1ccc(F)cc1)NCC1CCCO1 (stereo not given)	-13	3.5	1	0.7	2.0	-7	3.6	20
COc1ccccc1NC(=O)CSc1ccc2nnc(-c3ccccn3)n2n1	.	-2.7	0	1.5	3.3	-3	-2.8	0
CN(C)C(=O)CCN1CCOCC1	-2	0.0	8	-0.1	1.4	-9	1.0	.
Cc1ccc(Cl)c(OCC(=O)OCC(=O)c2ccc[nH]2)c1	-7	.	11	-0.2	4.8	.	-4.3	.
COc1ccc(-c2c(C#Cc3ccsc3)c3ccccc3n2C)cc1	10	3.7	5	1.3	-15	-40	-5.1	41
O=C(COC(=O)c1cccnc1Cl)Nc1ccc2c(c1)OCCO2	-6	1.2	-6	-1.2	4.2	6	-0.6	-14
Cc1ccc(S(=O)(=O)Nc2nc(C)c(NC(=O)Nc3ccc(Cl)cc3Cl)s2)cc1	-2	-2.3	-2	0.3	0.2	1	4.2	1
COc1ccc(NC(=O)c2ccc3c(c2)C(=O)N(CC2CCCO2)C3=O)cc1 (stereo not given)	0	0.5	-2	-0.5	2.8	-2	2.5	-12
O=C(CCNc1ccc(F)cc1)c1cccc([N+](=O)[O-])c1	-4	-2.3	-4	1.3	2.6	-4	1.6	53
Cc1ccc(S(=O)(=O)N2CCN(C(=O)c3cc(-c4cccs4)nn3-c3ccccc3)CC2)cc1	-7	-0.2	22	1.2	.	0	3.6	-11
COc1cc(-c2nc3sc(C)c(C)c3c(=O)o2)cc(OC)c1OC	1	-0.9	3	0.3	-34	3	0.3	-9
COCCN1CC(CNC(=O)c2cc(COc3ccc(C)c(C)c3)on2)CC1=O (stereo not given)	-4	0.2	-580	-0.5	-0.4	2	-0.2	-15
COc1ccc(NS(=O)(=O)c2cnc[nH]2)cc1	-3	5.0	2	1.3	-0.2	31	0.2	-17
O=C1c2ccc(Cl)cc2S(=O)(=O)c2cccc(C(=O)N3CCN(c4ccc(Cl)cn4)CC3)c21	6	.	12	2.4	-0.5	.	2.7	.
Cc1oc(=O)c(NC(=O)c2cccc(Cl)c2)cc1C(=O)c1ccccc1	9	2.1	5	1.1	-13	14	0.0	-21
O=C(CSc1ncnc2ccccc12)N1CCCC1	-6	1.6	2	0.1	6.4	6	-2.3	-3
O=C(NCc1ccco1)C(c1ccncc1)N(C(=O)Cn1nnc2ccccc21)c1ccccc1 (stereo not given)	-6	1.3	-7	-0.8	4.8	0	-2.9	0
CCCc1nnc(NC(=O)c2c(O)c3cccc4c3n(c2=O)CCC4)s1	5	9.7	.	0.7	-0.4	0	-2.4	-18
O=C(Nc1ccc(F)cc1)C(Sc1nc2ccccc2[nH]1)c1ccccc1 (stereo not given)	-3	-4.7	11	-0.2	2.8	1	-3.0	3
Cc1ccc(NC(=O)CSc2nnc(-c3cnccn3)n2Cc2ccco2)cc1C	-5	-4.3	-1	0.3	1.6	-14	-1.9	16
CCCCCc1c(C)nc(NCc2ccccc2)[nH]c1=O	-4	?	-9	0.8	3.5	-21	7.6	5
Cc1cc(OCC(=O)NC(Cc2ccc(Cl)cc2)C(=O)O)c2c(C)c(C)c(=O)oc2c1 (stereo not given)	.	2.7	-18	-0.1	-71	-3	-2.4	-23
O=C(O)c1ccc(S(=O)(=O)N2CCCCCC2)cc1	-4	2.1	-2	-0.3	3.5	20	-2.1	-4
CCN(CC)S(=O)(=O)c1ccc(N2CCOCC2)c(NC(=O)CC2OC(=O)c3ccccc32)c1 (stereo not given)	4	-8.3	4	-0.3	4.3	-5	7.2	10
Cc1onc(-c2ccccc2Cl)c1C(=O)N1CCOC12CCN(c1cccc(F)n1)CC2	-6	5.5	-3	-0.4	-1.1	-6	4.4	13
CCC(C)(C)NC(=O)C(c1ccc(F)cc1)N(CCOC)C(=O)CCC(=O)Nc1nccs1 (stereo not given)	-1	-0.1	-1	-0.1	-0.3	6	-2.4	0
Cc1ccnc(NC2(C(F)(F)F)N=C(c3ccccc3)NC2=O)c1 (stereo not given)	-16	0.3	1	-0.2	-0.6	-3	2.0	-9
CSc1nc2n(n1)C(c1cccs1)C1=C(CCCC1=O)N2 (stereo not given)	-5	-0.3	-5	0.0	-20	-3	.	3
CC(=NCC1CCCO1)c1c(O)[nH]c(=O)[nH]c1=O (stereo not given)	-3	0.4	-5	-0.2	1.5	-1	-0.8	-5
CNC(=O)N(O)C1N(/N=C/c2c(F)cccc2Cl)C(=S)SC1(C)C (stereo not given)	1	4.0	-8	0.2	.	9	-3.6	10
CN(C(=O)c1cccc(Nc2ccc(-c3ccc4c(c3)OCCO4)nn2)c1)C1CCCCC1	10	.	7	-1.4	0.7	.	-0.9	.
COc1ccc(C(=O)OC(C)C(=O)NCC2CCCCC2)cc1S(=O)(=O)N1CCOCC1 (stereo not given)	0	.	0	-0.1	4.7	.	-2.5	.
COc1ccc([C@@H]2CC=C(C(=O)O)[C@H](c3ccccc3)N2S(=O)(=O)c2ccc(C)cc2)cc1OC	-1	.	0	1.2	0.0	.	-0.7	.
O=C(N/N=C/c1cc2c(cc1Br)OCO2)c1cc2ccccc2o1	8	-4.1	7	-2.6	.	-8	1.0	3
CCOC(=O)C1CCCN(C(=O)CSc2ccccc2)C1 (stereo not given)	.	1.0	-4	0.0	0.1	-1	-3.0	-15
Cc1cc(NC(c2ccc(Cl)cc2)c2ccc3cccnc3c2O)no1 (stereo not given)	.	1.6	3	-1.3	-0.1	101*	2.0	37
(continued)
SMILES	Beta cell apopt	RanGTP-Impb inh	Beta2AR agonist	Bfl-1 A1 inh	UCH37 DUB inh	Calb FLC	LANA-H2B inh	T cruzi inh
O=C1N=C(O)CN1/N=C/c1ccc(-c2ccc([N+](=O)[O-])cc2)o1	6	-5.7	-6	1.4	.	.	-2.4	3
Cc1ccc(SCCC(=O)N(C)C)cc1	-3	4.6	0	-2.1	1.4	?	3.3	0
O=C(c1cc2cc(F)ccc2[nH]1)N1CCN(c2ccc(F)cc2)CC1	-7	-1.3	-6	?	3.2	2	4.5	-11
CCOc1cc(CNc2ncc(-c3ccc(OC)cc3)n2C)ccc1O	0	1.5	0	0.9	1.9	9	-0.2	3

Part of the list above in order of number of heavy atoms, high to low:
SMILES	Beta cell apopt	RanGTP-Impb inh	Beta2AR agonist	Bfl-1 A1 inh	UCH37 DUB inh	Calb FLC	LANA-H2B inh	T cruzi inh
CCOc1cc(CNc2ncc(-c3ccc(OC)cc3)n2C)ccc1O	0	1.5	0	0.9	1.9	9	-0.2	3
O=C1N=C(O)CN1/N=C/c1ccc(-c2ccc([N+](=O)[O-])cc2)o1	6	-5.7	-6	1.4	.	.	-2.4	3
Cc1ccc(SCCC(=O)N(C)C)cc1	-3	4.6	0	-2.1	1.4	?	3.3	0

Compound activity from PubChem.
